VDR inh – blocks the human vitamin D receptor; AID 504847; 400,000 compounds, 0.93% hits; Potency, µM, for the others: max response, negative = inhibition, usual class: inhibitors; P11473; VDR-SRC2-3 peptide fluorescence polarization, 2 h; active = well fitted inhibition curve with a large enough effect; inconclusive = small, poorly fitted or top-dose-only effect, or another doubt; inactive = no such curve, though single readings can be large or run the other way; note: series mostly up to about 120 µM
Target sequence (P11473 whole entry, looked up): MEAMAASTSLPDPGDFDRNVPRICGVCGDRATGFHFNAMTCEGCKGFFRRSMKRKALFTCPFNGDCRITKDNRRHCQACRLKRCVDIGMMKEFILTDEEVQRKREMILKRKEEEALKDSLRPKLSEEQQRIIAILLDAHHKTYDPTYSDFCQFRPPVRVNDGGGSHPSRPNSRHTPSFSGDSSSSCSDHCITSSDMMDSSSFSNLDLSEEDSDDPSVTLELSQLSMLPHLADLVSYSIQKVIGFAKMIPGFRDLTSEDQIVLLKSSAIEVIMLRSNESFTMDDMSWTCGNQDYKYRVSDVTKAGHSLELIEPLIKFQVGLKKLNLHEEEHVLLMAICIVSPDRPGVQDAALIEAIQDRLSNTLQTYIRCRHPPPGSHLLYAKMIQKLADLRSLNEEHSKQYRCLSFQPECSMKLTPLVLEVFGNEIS
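VDR–SRC2-3 interaction, FP format. Cmpds 23 nl via pintool, brief spin, 2 h ambient incubation.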
* marks the source's active call; other numbers are inactive results; ? = inconclusive; & = joins results of further samples; [ ] = dose if it differs, or a comment. % is set by controls: 0 for no effect and ±100 for the full control effect; potency is the fitted concentration of half-maximal effect.

SMILES	VDR inh
CN(C)S(=O)(=O)c1cccc(NC(=O)CNCC2CCCCC2)c1	0%
COc1ccccc1/C=C/C=N/n1c(-c2ccncc2)n[nH]c1=S	-26%
COc1ccc(CCNC(=O)CNC(=O)c2ccccc2Br)cc1OC	-14%
CS(=O)(=O)N1CCN(c2ccc(NC(=O)c3ccc(Br)o3)cc2)CC1	-4%
Nn1cnn(Cc2ccccc2)c1=S	-13%
COc1ccccc1OCCN1C(=O)S/C(=C\c2ccco2)C1=O	-16%
COc1ccc(C(CCNCc2ccccc2F)c2ccc(F)cc2)cc1 (stereo not given)	-8%
COC(=O)c1cc(OC)c(OC)cc1NC(=O)Nc1ccccc1OC	1%
COc1ccc(-n2c(=S)[nH]c3cc(C(=O)N(C)Cc4ccccc4)ccc3c2=O)cc1	-4%
CCCCn1c(N)c(N(Cc2ccccc2OC)C(=O)C(C)Oc2ccc(Br)cc2)c(=O)[nH]c1=O (stereo not given)	-16%
O=C(CSc1c2c(nc3cc(Cl)ccc13)CCCC2)NCc1ccco1	-19%
COc1ccc(/C=N\NC(=O)c2nn(C)cc2Cl)cc1CN1CCOCC1	-8%
Cc1cc(C)c2nc(N3CCCC3)c(C#N)cc2c1	-2%
COc1ccc(NC(=O)CSc2nnc3c(n2)[nH]c2ccc(S(=O)(=O)N(C)C)cc23)c(OC)c1	6%
CCOC(=O)Cn1c(=O)n(C2CCCCC2)c2nc(-c3ccc(Cl)cc3)nc(C(N)=O)c21	-10%

Three compounds drawn at random from the list so far, as already listed:
SMILES	VDR inh
CN(C)S(=O)(=O)c1cccc(NC(=O)CNCC2CCCCC2)c1	0%
COc1ccccc1OCCN1C(=O)S/C(=C\c2ccco2)C1=O	-16%
COc1ccc(/C=N\NC(=O)c2nn(C)cc2Cl)cc1CN1CCOCC1	-8%

More structures follow.
SMILES	VDR inh
Cc1cnnc2c1-c1no[n+]([O-])c1CC2	-2%
O=C(NCCN1CCN(c2ccccc2)CC1)c1ccc2c(c1)[nH]c(=S)n1c3ccccc3nc21	-8%
COc1ccc(NS(=O)(=O)c2c(C)n(C)c(=O)n(C)c2=O)cc1OC	2%
CCn1cc(C(=O)NCCc2ccccc2)c(=O)c2cc(S(=O)(=O)N(C)C)ccc21	-3%
COc1ccc(-n2nc(C(=O)NCC(=O)N3CCN(C)CC3)c3ccccc3c2=O)cc1	-11%
C/C=C/C(=O)OCC(=O)Nc1ccc(SC(F)F)cc1	-10%
COc1ccc(Cl)cc1C(=O)NNC(=O)c1nn(C)c(=O)c2ccccc12	-6%
COc1ccc(/C=N\NC(=O)c2ccccc2F)cc1COc1ccc(F)cc1	-8%
CCn1nc(NC(=O)c2ccco2)c2cc3ccc(C)cc3nc21	9%
O=C(COC(=O)CN1C(=O)NC2(CCCC2)C1=O)Nc1ccccc1C(F)(F)F	-2%
C/C=N/NC(=O)CCNC(=O)c1ccccc1	-13%
CCC(C)NC(=O)C1CCCN(C(=O)NC2CCCCC2)C1 (stereo not given)	13%
COc1ccc(NC(=S)N(CCC(C)C)C2CCN(C(C)=O)CC2)cc1	9%
CCOC(=O)c1c(NC(=O)Cc2ccccc2)sc2c1CCN(CC)C2	2%
COc1ccc(C(=O)NC(C)c2nc3ccccc3n2C)cc1OC (stereo not given)	4%
c1ccc(-c2nnc(SCC3CCCCO3)nc2-c2ccccc2)cc1 (stereo not given)	-3%
CN(C)CCN1C(=O)C(=O)/C(=C(/O)c2ccc(OCc3ccccc3)cc2)C1c1ccncc1 (stereo not given)	6%
O=C(c1ccc2c(Cl)c3c(nc2c1)CCCC3)N1CCN(c2ccc(Cl)cc2)CC1	-6%
CCc1ccc(C(=O)Nn2c(C)nc3ccccc3c2=O)cc1	-17%
Cc1cccc(Cn2ccn(Cc3ccc(Cl)cc3)c(=O)c2=O)c1	-4%
O=C(NC(=O)N1CCN(c2cccc(Cl)c2)CC1)c1ccc(Cl)cc1	-2%
Cc1ccc(CNC(=O)C(=O)NCC(c2cccs2)S(=O)(=O)c2ccccc2)cc1 (stereo not given)	-5%
COc1ccccc1NC(=O)CSc1nnnn1-c1ccccc1F	-9%
Cc1cc(Nc2cc(C(=O)O)ccc2C)n2ncnc2n1	-1%
O=C(/C=C/c1ccc(S(=O)(=O)N2CCOCC2)cc1)NCCCn1ccnc1	-24%
O=C1NC2(CCCCC2)C(=O)N1/N=C/c1ccc(O)cc1O	-26%
N#Cc1ccc(NC(=O)c2sc3cc(C(F)(F)F)cnc3c2-c2cccs2)cc1	3%
CSc1ccc(CCNC(=O)c2cc(C)nc3c2c(C)nn3-c2cccc(F)c2)cc1	-2%
S=C(Nc1cccc2ccccc12)NN1CCCCCC1	-12%
CCc1cccc2c1NC(=O)C2(O)N1CCCC(C)C1 (stereo not given)	-4%
Cc1ccc2c(CC(=O)Nc3c(C(=O)c4ccc(F)cc4)oc4ccccc34)coc2c1	-3%
Cc1c(C)n2c(SCC(=O)Nc3ccc4c(c3)OCCO4)nnc2[nH]c1=O	-6%
COc1ccc(-n2c(Cc3cccn3C)nnc2SCC(=O)Nc2ccc(C)cc2)cc1	2%
Cc1ccc(NC(=O)CNC(=O)c2ccc(Br)o2)nc1	-23%
Cc1ccc(S(=O)(=O)N2CC3CCCN3c3ccc(C(F)(F)F)cc32)cc1 (stereo not given)	-4%
CCOC(=O)c1c(C)[nH]c(N=Nc2cccc(C)c2)c1C	7%
Cc1cc(C(=O)N/N=C/c2cccc(OC(=O)c3ccco3)c2)n[nH]1	-9%
CSCCC(NS(=O)(=O)c1ccc2c(c1)oc(=O)n2C)C(=O)NCc1ccc(F)cc1 (stereo not given)	-20%
O=C(COc1ccc2ccccc2c1)Nc1cccc(C(=O)Nc2ccccc2C(=O)O)c1	-8%
COc1ccc(NC(=S)N(Cc2ccc(Cl)cc2)Cc2ccc(C(=O)O)cc2)cc1Cl	-2%
Cc1ccc(O)c(C(=O)c2cnc3c(c2)COc2ccccc2-3)c1	-12%
COc1ccc(C(=O)N2CCC[C@@]3(CCN(Cc4ccccc4)C3)C2)cc1	?
O=C(CNC(=O)N1CC(=O)Nc2ccccc21)NCc1ccccc1	6%
Cc1ccccc1OCC(=O)OCC(=O)Nc1ccc2c(c1)OCCO2	3%
Cc1ccccc1CSc1nc2c([nH]c3ccccc32)c(=O)n1C	2%
CCCCc1nnc2c(N(C)S(=O)(=O)c3ccc(C)cc3)nc3ccccc3n12	13%
CCOc1ccc(-c2cc3c(=O)n(Cc4nc(-c5ccccc5OCC)oc4C)ccn3n2)cc1Cl	-3%
Cc1ccc(C2=Nc3ccccc3N(CC(=O)Nc3ccccc3F)C(=O)C2)cc1C	12%
CC(NC(=O)COC(=O)c1ccccc1F)C1CC2CCC1C2 (stereo not given)	?
O=C(CN(c1ccc(F)cc1)S(=O)(=O)c1ccc2c(c1)OCCO2)Nc1ccccc1	0%
COc1ccc(C(=O)Nn2cnc3scc(-c4cccs4)c3c2=O)c(O)c1	-11%
O=C(Nc1ccccc1)c1ccc(CN2CCC(Cc3ccccc3)CC2)cc1	11%
COc1ccc(C(=O)N2CCN(C(=O)c3cc(OC)c(OC)c(OC)c3)CC2)cc1	-8%
COc1ccc(OCC(=O)N2CCc3ccccc3C2)cc1	-27%
Cn1c(=O)c(=O)n(C)c2cc(S(=O)(=O)NCCOc3ccccc3)ccc21	-5%
OCCOCCN1CCN(C(=S)Nc2ccccc2)CC1	-1%
CCc1cc(=O)oc2c(C)c(OCC(=O)NCC3CCC(C(=O)O)CC3)ccc12 (stereo not given)	-9%
O=C(CSc1nc2[nH]c(=O)cc(O)c2s1)Nc1cc(Cl)cc(Cl)c1	-8%
COc1ccccc1C1CC(=O)Oc2cc(O)ccc21 (stereo not given)	-4%&-18%
O=C(Cn1cnc2sc(-c3ccccc3)cc2c1=O)NCc1ccccc1	0%

Nothing new here: three of the compounds above.
SMILES	VDR inh
CCCCc1nnc2c(N(C)S(=O)(=O)c3ccc(C)cc3)nc3ccccc3n12	13%
CCOc1ccc(-c2cc3c(=O)n(Cc4nc(-c5ccccc5OCC)oc4C)ccn3n2)cc1Cl	-3%
Cc1ccc(C2=Nc3ccccc3N(CC(=O)Nc3ccccc3F)C(=O)C2)cc1C	12%

Other results
SMILES	VDR inh
CCOC(=O)C1CCN(C(=O)c2ccc(S(=O)(=O)Nc3ccccc3Cl)cc2)CC1	0%
O=C(c1cc(=O)c2cc(Cl)ccc2o1)N1CCN(Cc2ccccc2)CC1	-2%
COc1ccc(C(CCN2CCN(c3ccccc3)CC2)c2c(OC)cc(OC)c3c(-c4ccccc4)cc(=O)oc23)cc1 (stereo not given)	-18%&3%
CCOc1cc(NC(=S)NCCCN2CCOCC2)c(OCC)cc1NC(=O)c1cccs1	-3%
Nc1ccc2nc(COc3ccccc3)[nH]c2c1	-9%
O=C(COC(=O)c1cc2ccccc2cc1O)NC(=O)NCc1ccco1	1%
CCCCC1CCC(C(=O)N(CCOC)c2c(N)n(CC(C)C)c(=O)[nH]c2=O)CC1 (stereo not given)	-4%
Cc1ccc(NC(=S)N(CCN(C)C)Cc2cc3cc(C)ccc3[nH]c2=O)cc1	3%
O=C1CC(c2ccccc2)CN1C(=O)c1cccc([N+](=O)[O-])c1 (stereo not given)	-10%
Cc1sc2ncn(CC(=O)Nc3ccccc3F)c(=O)c2c1-c1ccccc1	-17%
CCOc1ccc(-c2cc(C(=O)N/N=C(\C)c3cccnc3)c3ccccc3n2)c(OCC)c1	-2%
FC(F)Oc1ccc(NC(=S)NNc2ccnc3cc(Cl)ccc23)cc1	35µM*
CCOc1cc2[nH]c(=S)n(CCCOC)c(=O)c2cc1OCC	8%
COc1ccccc1NC(=O)c1ccccc1NC(=O)c1ccccn1	-21%
c1ccc2c(CCN3CCNC[C@H]3Cc3cccc4ccccc34)cccc2c1	-9%
Nc1cc(=O)[nH]c(SCC(=O)Nc2cccc([N+](=O)[O-])c2)n1	-6%
CN1CCOc2cc(S(=O)(=O)N3CCN(c4nc(-c5cccs5)nc5ccccc45)CC3)ccc21	15%
O=C1CC(c2cccc(Cl)c2)Cc2nc(N3CCOCC3)ncc21 (stereo not given)	-4%
COc1cccc(C(=O)c2sc3nc(-c4ccccc4)cc(C(F)(F)F)c3c2N)c1	-13%
CC(C)c1c(O)ccc2c1CC[C@H]1C(C)(C)CCC[C@]21C	-13%
CC1CCN(C(=O)COC(=O)CCCN2C(=O)c3cccc4cccc(c34)C2=O)CC1	-13%
CC(C)c1ccc(NC(=O)c2cnc3sc(N4CCOCC4)nn3c2=O)cc1	6%
N#C/C(=C\c1cccc(Br)c1)C(=O)N1CCCCC1	50µM*
COc1cc(C2C3=C(CCCC3=O)Nc3[nH]n(-c4ccccc4)c(=O)c32)ccc1OC(C)=O (stereo not given)	-5%
CCCn1c(SCCN2CCOCC2)nc2c1c(=O)n(C)c(=O)n2C	2%
C=CCn1cc(C(=O)NCCCOC)c(=O)c2cc(S(=O)(=O)N3CCC(C)CC3)ccc21	-15%
O=C(CN1CCN(Cc2ccc(F)cc2)C1=O)NCc1cccs1	-5%
NNC(=O)c1cc2c(ccc3ccccc32)o1	-18%
Cc1cc(=O)c2c(O)cc(O)c(C)c2o1	?
O=C(CSc1nnc(-c2ccncc2)n1Cc1ccco1)Nc1cccc(O)c1	11%

Overlap with the part before: five compounds, followed by the next part.
SMILES	VDR inh
C=CCn1cc(C(=O)NCCCOC)c(=O)c2cc(S(=O)(=O)N3CCC(C)CC3)ccc21	-15%
O=C(CN1CCN(Cc2ccc(F)cc2)C1=O)NCc1cccs1	-5%
NNC(=O)c1cc2c(ccc3ccccc32)o1	-18%
Cc1cc(=O)c2c(O)cc(O)c(C)c2o1	?
O=C(CSc1nnc(-c2ccncc2)n1Cc1ccco1)Nc1cccc(O)c1	11%
O=C(Nn1cc(C(=O)Nc2ccccc2F)c2ccccc2c1=O)c1cnccn1	13%
COc1ccc(/C=C/C(=O)N(C)C2(C)CCS(=O)(=O)C2)cc1 (stereo not given)	-4%
O=C(Cc1ccccc1)NCCSCc1ccccc1	1%
Cc1ccc2[nH]c3c(Cl)ncnc3c2c1	5%
Cc1ccc(NC2(C(N)=O)CCCC2)cc1	-13%
COc1ccc(N2C(=O)CCC2(C#N)c2ccc(Br)cc2)cc1 (stereo not given)	-2%
Cc1ccc(NC(=O)Cn2c(=O)n(Cc3ccc4c(c3)OCO4)c(=O)c3ccc(C(=O)NC4CCCCC4)cc32)c(C)c1	-13%
O=C(Oc1cccc2cccnc12)c1ccc2c(c1)OCCO2	1%
O=C(N/N=C/c1ccc2cccc(OCc3ccccc3)c2n1)c1ccc(Br)cc1	6%
COc1cc(Cl)c(C)cc1NC(=O)c1cnn(-c2ccc(C)cc2)c1-n1cccc1	-8%
O=C(Nc1ccc(O)cc1)c1ccccc1OCc1ccccc1	-6%
COc1ccc(Nc2ncc(C(=O)N3CCN(c4cccc(Cl)c4)CC3)c3ccccc23)cc1	-15%
COc1cc2ccccc2cc1C(=O)Nc1ccc2oc(-c3ccc(Cl)cc3)nc2c1	-6%
CC(C)c1ccc2c(c1)C1Cc3ccccc3C1N2 (stereo not given)	?
Cc1ccc2c(CN3CCN(S(=O)(=O)c4ccccc4C(F)(F)F)CC3)cc(=O)oc2c1C	70%[activator]
Cc1ccc(Cn2nc(C)c(/C=N/NC(=O)c3cccnc3)c2C)cc1	-17%
CC(C)OC(=O)CSc1nc2c(cc1C#N)CCCCC2	5%
Cc1ccc(CNC(=O)CN(c2ccc(Cl)cc2Cl)S(=O)(=O)c2ccccc2)cc1	6%
CCOC(=O)CNNC(=O)Nc1ccc(Cl)c(Cl)c1	-23%
CCOc1ccc(/C(O)=C2/C(=O)C(=O)N(CCCN3CCOCC3)C2c2ccc(C)cc2)cc1C (stereo not given)	12%
Cc1ccc(Cc2nc3ccccc3nc2SCC(=O)N2CCN(c3ccc(F)cc3)CC2)cc1	2%
Cc1onc(-c2c(Cl)cccc2Cl)c1C(=O)NC1CCCCC1	10%
COc1cc(NS(=O)(=O)c2ccc(NC(=O)NC3CCCCC3)cc2)nc(OC)n1	5%

From PubChem

The list is partial, so the mix of outcomes need not match the whole.
